MARV entry inh – inhibitors of Marburg virus binding or cell entry. Marburg virus pseudotyped entry inhibition, cell reporter; control for the full effect not named in the record; about a third of the inactives were read at about 46 µM. Potency, µM (top dose mostly 37.8 µM), without a hit: at the top dose activity change, negative = inhibition, usual class: inhibitors. actives 1.8% (n = 300,000). AID 540276; active = well fitted inhibition curve with a large enough effect; inconclusive = small, poorly fitted or top-dose-only effect, or effect the other way; inactive = flat fitted curve, though single readings scatter; tested in HEK293 cells; about a fifth of its hits are not listed in these tables; further: on the % scale 0 is the no-effect control and ±100 the full control effect; luciferase read-out
Cruzain Triton – blocks cruzain activity in presence of Triton detergent; purified cruzain, Z-FR-AMC fluorescence, 0.01% Triton; Potency, µM, inactives show max response, negative = inhibition, actives largely listed as inhibitors; P25779; actives 0.43% (n = 200,000);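 further: plate controls were neutral wells for no effect and buffer without enzyme for full effect; nearly all actives have a fitted effect of over 40% in size; top concentration of the series not given in the record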
Target sequence (P25779 123-467 limits assumed): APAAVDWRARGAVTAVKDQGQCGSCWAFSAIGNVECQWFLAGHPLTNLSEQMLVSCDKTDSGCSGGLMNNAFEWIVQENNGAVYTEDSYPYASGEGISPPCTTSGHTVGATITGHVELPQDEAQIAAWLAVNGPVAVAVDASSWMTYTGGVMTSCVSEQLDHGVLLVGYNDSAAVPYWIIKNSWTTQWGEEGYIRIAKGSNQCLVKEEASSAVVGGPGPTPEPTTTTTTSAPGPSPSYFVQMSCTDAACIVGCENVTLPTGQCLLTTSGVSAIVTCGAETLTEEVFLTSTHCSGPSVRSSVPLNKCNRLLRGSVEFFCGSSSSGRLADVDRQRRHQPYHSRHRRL
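Compounds were screened in titration against cruzain (1.5 nM) with 0.01% Triton X-100 to counter colloidal aggregation. Activity was the AMC fluorescence increase over 60 s after adding 2 uM Z-FR-AMC at pH 5.5.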
Cruzain inh noDet – inhibitors of Trypanosoma cruzi cruzain without detergent; P25779; purified cruzain, Z-FR-AMC fluorescence, no detergent; Potency, µM, for inactives: max response, negative = inhibition, usual class: inhibitors; actives 2.3% (n = 200,000); AID 1476;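 further: plate controls were enzyme without inhibitor for no effect and buffer without enzyme for full effect; nearly all actives have a fitted effect of over 40% in size; top concentration of the series not given in the record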
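Detergent-free condition (0.00005% Triton X-100) in acetate buffer pH 5.5 with DTT. 1.5 nM enzyme and compound were pre-mixed 15 min, then 2 uM Z-FR-AMC substrate added; reaction progress from fluorescence change between first and third reads (60 s).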
StopGo reporter – lowers the luciferase signal of an FMDV 2A StopGo reporter; actives 1.2% (n = 410,000); human cells with a luciferase reporter of 2A StopGo recoding; control for the full effect not named in the record; Potency, µM (titrated, usually from 57.9 µM), without a hit: at the top dose signal change, negative = less light; active = well fitted falling curve with a large enough effect; inconclusive = small, poorly fitted or top-dose-only effect; inactive = no such curve, though single readings can be large or run the other way; tested in HEK293T cells; further: on the % scale 0 is the no-effect control and ±100 the full control effect; nearly all actives have a fitted effect of over 45% in size; luciferase light after 4 h
RE007 growth inh – less growth of the S. pombe RE007 Vpr strain. actives 0.21% (n = 360,000). S. pombe RE007 Vpr strain, BacTiter-Glo ATP luminescence, 24 h; control for the full effect not named in the record. Potency, µM (titrated, usually from 92.2 µM), for inactives: at the top dose activity change, negative = less growth; active = well fitted falling curve with a large enough effect; inconclusive = small, poorly fitted or top-dose-only effect; inactive = no such curve, though single readings can be large or run the other way;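 further: on the % scale 0 is the no-effect control and ±100 the full control effect; nearly all actives have a fitted effect of over 50% in size; the assay follows cell death caused by Vpr and the record does not say whether a fall means rescue or toxicity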
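Fission yeast strain RE007, carrying one chromosomally integrated HIV-1 vpr copy, was seeded at OD 0.01 in PMG+AL medium with 23 nL pinned compound. After 24 h at 30 °C and 99% humidity, viability was read by BacTiter-Glo luminescence.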
NS1 function inh – blocks influenza NS1 protein function. S. cerevisiae slowed by influenza A NS1, growth recovery by OD600. Potency, µM (titrated, usually from 46.1 µM), without a hit: at the highest dose activity, positive = more growth. actives 0.4% (n = 270,000); active means well fitted rising curve with a large enough effect; inconclusive means small, poorly fitted or top-dose-only effect; inactive means no such curve, though single readings can be large or run the other way; further: nearly all actives have a fitted effect of over 50% in size
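OD600 was taken as the measure of yeast growth restored by compound in an NS1-expressing S. cerevisiae strain. Cells had been washed out of glucose medium and diluted 1:100 into galactose -URA medium, pH 6.0.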
LASV entry inh – inhibitors of Lassa virus binding or cell entry. Lassa virus pseudotype entry inhibition, cell reporter; control for the full effect not named in the record. Potency, µM (top dose mostly 37.9 µM), inactives show at the top dose activity change, negative = inhibition, actives largely listed as inhibitors. actives 1.2% (n = 300,000). AID 540256; active means well fitted inhibition curve with a large enough effect; inconclusive means small, poorly fitted or top-dose-only effect, or effect the other way; inactive means flat fitted curve, though single readings scatter; tested in HEK293 cells; further: on the % scale 0 is the no-effect control and ±100 the full control effect; nearly all actives have a fitted effect of over 50% in size; luciferase read-out
SARS PLP yeast – inhibitors of SARS-CoV papain-like protease in yeast. S. cerevisiae expressing SARS-CoV PLpro, growth rescue; control for the full effect not named in the record. actives 0.19% (n = 330,000). Potency, µM (titrated, usually from 32.9 µM), for the others: top-dose activity, positive = growth rescue; active means well fitted rising curve with a large enough effect; inconclusive means small, poorly fitted or top-dose-only effect; inactive means no such curve, though single readings can be large or run the other way; further: 0% is about no effect; nearly all actives have a fitted effect of over 55% in size; growth read by luminescence after 48 h
The depositor's hits bear a star; ? = inconclusive; . = no result given; & = joins results of further samples; [ ] = another dose, or the depositor's remark. Unless noted, the call rests on the fitted dose curve; in most records, active means well fitted curve in the direction sought with a large enough effect; inconclusive means small, poorly fitted or top-dose-only effect, or another doubt; inactive means no such curve, though single readings can be large; an effect the other way counts as inactive or inconclusive. Potency means the concentration at half of the fitted maximal effect.

SMILES	MARV entry inh	Cruzain Triton	Cruzain inh noDet	StopGo reporter	RE007 growth inh	NS1 function inh	LASV entry inh	SARS PLP yeast
COc1ccc(C(C)C)cc1S(=O)(=O)n1cnc(C)c1	?	3.5%	4%	53%[activator]	-1%	2%	?	3%
O=C(N1CCOCC1)C1(c2ccccc2)CCCCC1	0%	1.9%	-4%	8%	6%	8%	-12%	-2%
CCNC(=S)N(Cc1ccc2c(c1)OCO2)C1CC(=O)N(c2ccc(OC)cc2)C1=O (stereo not given)	-11%	-3.8%	0%	4%	-2%	5%	7%	7%
CC(C)N=c1scc(-c2cccs2)n1/N=C/c1ccc(O)c(O)c1O	?	-4.0%	13%	-21%	?	-5%	?	-75%
COC(=O)c1ccc(-c2ccc(/C=N/N3C(=O)C4C5C=CC(CC5)C4C3=O)o2)cc1 (stereo not given)	?	.	.	-26%	10%	-3%	-2%	-1%
Cc1nn(-c2ccccc2)c(N)c1C(O)(CSc1nccn1C)C(F)(F)F (stereo not given)	-24%	-3.8%	8%	2%	2%	-3%	17%	2%
ClC1CCCCC1n1nnc2ccccc21 (stereo not given)	?	.	.	-11%	-6%	.	5%	.
CCN(CC(=O)Nc1c(F)cccc1F)C(=O)CCCc1c[nH]c2ccccc12	.	.	.	0%	-5%	1%	.	?
COc1cnc(-c2ccccn2)nc1NC(C)C	11µM*	.	.	10%	-23%	.	?	-8%
Cc1ccc(S(=O)(=O)CCc2nnc(NC(=O)C3CCCCC3)s2)cc1	.	.	.	-4%	10%	4%	.	-5%
CCOC(=O)c1ccc(NS(=O)(=O)c2ccc3c(c2)n(C)c(=O)n3C)cc1	?	-3.5%	?	-9%&-12%	10%	-4%	-3%[46.1 µM]	1%
Cc1cc(C)c(S(=O)(=O)Nc2nnc(C(C)C)s2)c(C)c1	.	.	.	16%	2%	-77%	.	26%
Cc1c(Cl)cccc1N/C(SCC(=O)N1CCCCCC1)=C(/C#N)c1nc2ccccc2s1	11µM*	-5.5%	10µM*	?	-20%	14%	?	5%
Cc1nc(C)c(CCNC(=O)c2ccccc2)s1	3%	28µM*	?	-6%	?	6%	15%	24%
CCOC(=O)CNC(=O)c1ccc(-c2nn(C)c(=O)c3ccccc23)cc1	11%[46.1 µM]	-0.6%	-13%	-9%	.	.	12%[46.1 µM]	.
CCCN(CCC)CCNC(=O)c1sc2nc3n(c(=O)c2c1C)CCCCC3	.	-1.8%	-2%	-15%	.	.	-16%[46.1 µM]	.
CN1CCN(C(=O)CCc2ccc(S(=O)(=O)NC3CCCCC3)cc2)CC1	-24%[46.1 µM]	.	.	10%	-12%	.	-22%[46.1 µM]	-4%
CCN(CC)S(=O)(=O)c1ccc(NC(=O)c2cc(-c3cccs3)nc3ccccc23)cc1	-26%	-4.4%	?	0%	-7%	19%	?	-11%
Nc1nc(-c2ccc(Cl)cc2)nn1C(=O)c1cccs1	-14%[46.1 µM]	.	.	-3%	-4%	.	24%[46.1 µM]	-2%
CC(C)COc1cccc(C(=O)Nc2ccc(N3CCOCC3)cc2N2CCOCC2)c1	?	.	.	-27%	5%	.	-11%	1%
O=C(CCCCCNC(=O)c1ccccc1)N/N=C/c1ccccc1O	8%	-11%	-5%	41%[activator]	.	4%	?	27%
CCn1cc(Br)c(C(=O)NCc2ccco2)n1	18%	3.2%	-16%	.	7%	2%	-2%	.
O=C(NC1CCN(S(=O)(=O)c2cccc(Cl)c2)CC1)C1CCCCC1	4%[46.1 µM]	.	.	-3%	3%	13%	-8%[46.1 µM]	9%
O=C(COC(=O)c1c(Cl)ccc(Cl)c1Cl)NC(=O)NCc1ccccc1	?	-11%	6%	-23%	.	14%	?	-1%
Cc1ccc2oc(C(=O)N3CCN(CC(=O)NC(C)C)CC3)c(C)c2c1	?	.	.	-3%	-9%	-19%	12%[46.1 µM]	6%
CCC(=O)Nc1nnc(S(=O)(=O)N(CC)c2cc(C)cc(C)c2)s1	?	.	.	4%	2%	4%	0%	1%
CCCOc1ccc(C2C(C(=O)c3ccco3)=C(O)C(=O)N2CCN2CCOCC2)cc1OC (stereo not given)	-5%	2.0%	2%	.	.	-1%	.	-1%
CSCCC(NC(=O)c1ccc(Cl)cc1)C(=O)OCC(=O)c1ccc[nH]1 (stereo not given)	?	-27%	-26%	-4%	-2%	0%	8%	-20%
COc1ccccc1N1CCN(C(=O)c2ccc(N3CCCCS3(=O)=O)cc2)CC1	-19%[46.1 µM]	.	.	-27%	3%	-15%	28%[46.1 µM]	10%
O=C1CCN(Cc2cccnc2)CCN1[C@H](CO)c1ccccc1	.	.	.	-10%	3%	-6%	.	0%
CCOc1ccc(NC(=O)CN(C)C(=O)CCc2ccccc2Cl)cc1OCC	-2%	.	.	?	10%	-5%	13%	-7%
Brc1cc2c(cc1-c1nc3ccccc3s1)OCO2	6%[46.1 µM]	.	.	21%	-13%	1%	3%[46.1 µM]	-7%
COc1ccc(CCN=C(N)NS(=O)(=O)c2ccc(F)cc2)cc1	-6%[46.1 µM]	.	.	?	14%	.	?	2%
Cc1ccc(N2CN=c3s/c(=C\c4cccnc4)c(=O)n3C2)cc1	-20%[46.1 µM]	-14%	-14%	19%	1%	-5%	7%	3%
CCOc1ccc(OCC(=O)OC(C)C(=O)Nc2ccc(Cl)cn2)cc1 (stereo not given)	23%	.	.	-13%	3%	.	12%	1%
COCCn1c(SCc2nc3sc(C(=O)OC)c(C)c3c(=O)[nH]2)nc2ccccc21	?	-0.8%	?	3%	-1%	-32%	-3%	-1%
C/C=C/n1ccnc1CC(O)(c1ccccc1)c1ccc(C)cc1 (stereo not given)	?	.	.	-11%	-7%	.	-17%	.
CC(C)c1nc2sc3c(=O)[nH]cnc3c2c2c1CCCC2	14%[46.1 µM]	.	.	-17%	-2%	-2%	16%[46.1 µM]	0%
Cc1ccc2c(c1)N(CCCC(=O)NCCCN1CCCC1=O)C(=O)CO2	17%	4.5%	-9%	-12%	0%	12%	6%	-2%
Cc1ccc2c(c1)NC(=O)C(CC(=O)NC1CCCCC1C)O2 (stereo not given)	1%	-1.7%	-19%	-19%	2%	6%	-8%	6%
O=C(CCn1c(=O)c2ccccc2n(CC(=O)Nc2ccc(F)cc2)c1=O)NCCc1ccccc1	-1%[46.1 µM]	0.2%	-11%	-10%	.	.	-2%[46.1 µM]	.
Cc1ccsc1C1C(C#N)=C(N)N(N(C)C)C2=C1C(=O)CCC2 (stereo not given)	-12%[46.1 µM]	.	.	-3%	9%	.	16%	2%
CCc1ccc(C(=O)COC(=O)c2ccc(-c3nnc(-c4ccccc4)o3)cc2)cc1	?	1.4%	6%	49%[activator]	28%	0%	5%	-6%
CCN(CCCNC(=O)c1ccc(Sc2ccc(Cl)cc2)c(NC(C)=O)c1)c1ccccc1	.	0.2%	0%	-12%	.	.	-11%[46.1 µM]	.
Cc1nc2ccccc2n1CC(O)COCC1CC=CCC1 (stereo not given)	-24%	2.0%	5%	?	-18%	1%	-3%	-3%
COc1cccc(N2CCN(C(=O)c3c(C)nn(-c4ccccc4)c3C)CC2)c1	?	.	.	-2%	12%	.	25%[46.1 µM]	-1%
CSc1ccc(/C=N/NC(=O)c2ccc(O)cc2)cc1	?	-6.2%	-9%	75%[activator]	-9%	-12%	?	-6%
COc1ccc(S(=O)(=O)NCC2CCCN(C(=O)CC3CCCC3)C2)cc1 (stereo not given)	-25%	.	.	40%[activator]	13%	-2%	0%	-1%
CCc1ccc2c(c1)c(N=NC1=NC(=O)CS1)c(O)n2CC	7%	-4.6%	0%	-10%	-13%	-12%	1%	-1%
CC1CCCCN1CC(=O)Nc1ccc(N2CCCCCC2)cc1 (stereo not given)	?	.	.	7%	-5%	6%	-4%	0%
Cn1c(Cl)nc2ccccc21	2%	-1.7%	6%	0%	4%	8%	13%	-4%
O=C1COCCOCCOCCOCC(=O)NCCN1	0%	.	.	-3%	18%	0%	3%	1%
COc1ccc(/C=C2/SC(=S)N(CCCC(=O)Nc3ccccc3C(=O)O)C2=O)cc1	7.9µM*	.	.	8.9µM*	10%	22%	2.8µM*	-14%
CCn1c(=O)c(C(=O)NNC(=O)c2ccccc2Br)c(O)c2ccccc21	?	.	.	-10%	-22%	-51%	?	4%
Cc1[nH]c2ccccc2c1C(C[N+](=O)[O-])c1ccco1 (stereo not given)	?	.	.	-27%	-5%	.	-14%[46.1 µM]	-6%
O=C(c1cccc(Cl)c1)N1CCN(C2CCCCCC2)CC1	15%	4.3%	2%	-22%	0%	-1%	-15%	-4%
Cc1ccc(NC(=O)Cc2c(F)cccc2Cl)cc1S(=O)(=O)N1CCOCC1	?	.	.	0%	-1%	.	?	-3%
COc1ccc(-c2noc(N(C)CC(=O)Nc3cccc(C(F)(F)F)c3)n2)cc1	-12%	-12%	-2%	27%	-20%	-35%	-18%	-9%
O=C(Nc1cccc(Cl)c1)NC1CCN(C2CCCCC2)C1 (stereo not given)	?	.	.	-18%	-5%	-10%	-13%[46.1 µM]	7%
OC(CNCc1ccc(Cl)cc1)(c1ccccc1)c1ccc(F)cc1 (stereo not given)	?	.	.	-2%	-17%	.	-18%	0%
(next part)
SMILES	MARV entry inh	Cruzain Triton	Cruzain inh noDet	StopGo reporter	RE007 growth inh	NS1 function inh	LASV entry inh	SARS PLP yeast
Cc1sc(-c2ccccn2)nc1OC(=O)c1ccc(Cl)c(Cl)c1	21%	-8.5%	2%	13%	2%	8%	21%	-2%
COc1cccc2c3c(c(C)nc12)CC(C)O3 (stereo not given)	2%	-22%	6%	17%	-4%	-29%	3%	-13%
CCCCN(C(=S)Nc1cccc(C)c1C)c1c(N)n(CCC)c(=O)[nH]c1=O	-5%[46.1 µM]	.	.	-11%	7%	.	25%[46.1 µM]	-8%
CC1Oc2ccccc2C=C1/C=C1/SC(N2CCOCC2)=NC1=O (stereo not given)	1%[46.1 µM]	-7.6%	6%	37%[activator]	19%	27%	5%	-6%
O=C(NC1CCCCC1)C1CCCN1C(=O)Nc1ccccc1 (stereo not given)	-10%[46.1 µM]	.	.	10%	3%	2%	4%[46.1 µM]	-4%

Assay outcomes (PubChem)
